Source: PubChem (National Center for Advancing Translational Sciences (NCATS))
D2 potentiator = human D2 receptor positive allosteric modulation; potentiation, % (concentration not given with the values); AID 624464; P14416; actives 0.23% (n = 360,000); DiscoveRx D2 beta-arrestin cells, luminescence, 90 min; 100% = 57 uM dopamine signal; active = potentiation of 50% or more; inconclusive = 30% to 50%; inactive = 30% or less;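 note: compound concentration not given in the record; tested on top of an EC20 dose of dopamine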
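PathHunter D2 cells, attached overnight at 37 deg C, received compound in DMSO plus dopamine at EC20 (50 nM final) for 90 min at 37 deg C. Beta-arrestin recruitment was read as luminescence after 1 h with detection reagent at ambient temperature.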
Menin-MLL FL inh = menin-MLL binding inhibition, fluorescein peptide | Fluorescence polarization, fluorescein-MLL peptide displacement from menin | FP activity change, % at 61.4 µM | 290,000 tested, under 10 active | AID 1766; inconclusive = falling polarisation curve, or a change in total fluorescence; inactive = total fluorescence flat and polarisation flat or rising; no compound was filed as active; the % refers to the polarisation; negative = inhibition;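 note: % of control where 0% means no effect; inhibitors lower the polarisation; unlabelled MLL peptide was the positive control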
gsp agonist = gsp mutant agonism; gsp mutant cells, cAMP HTRF, 30 min; control for the full effect not named in the record; Potency, µM (highest dose often 76.9 µM), for the others: at the highest dose activation (cAMP increase), actives largely listed as activators; actives 0.13% (n = 340,000); active = well fitted activation curve with a large enough effect; inconclusive = small, poorly fitted or top-dose-only effect, or another doubt; inactive = no such curve, though single readings can be large or run the other way; cell line not stated here;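 note: phosphodiesterase inhibitor Ro 20-1724 added with compounds to block cAMP breakdown; potency is the fitted concentration of half-maximal effect; nearly all actives have a fitted effect of over 60% in size; about a fifth of the inactives were tested at one dose only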
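Cells stably selected in G418 were plated at 2000/well, grown 16-24 hr, then given compounds in DMSO with the PDE inhibitor […] (300 uM solution added) for 30 min at 37C; cAMP was read by HTRF.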
gsp antag = gsp mutant antagonism; gsp-mutant cells, cAMP HTRF, 30 min; control for the full effect not named in the record; Potency, µM (top dose mostly 76.9 µM), without a hit: at the highest dose activity change, negative = inhibition, hits mostly inhibitors; actives 0.4% (n = 340,000); AID 624288; active = falling curve of any shape with a large fitted effect; inconclusive = falling curve, mostly with a smaller effect; inactive = flat or rising curve; cell line not stated here;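 note: intracellular cAMP measured with PDE inhibitor Ro 20-1724 present during compound exposure; potency is the fitted concentration of half-maximal effect; % is set by controls: 0 for no effect and ±100 for the full control effect; nearly all actives have a fitted effect of over 65% in size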
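HTRF cAMP measurement after 30 min RT detection following 30 min, 37C compound treatment alongside […] (added as 300 uM solution) in G418-selected cells seeded at 2000/well and grown 16–24 h.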
ClpP mod = qHTS Assay for Activators of ClpP | purified B. subtilis ClpP, FRET peptide cleavage, 20 min | Potency, µM (highest dose often 57.5 µM), without a hit: top-dose activity change, negative = active | actives 1.9% (n = 340,000) | AID 651965, 2013; active = well fitted falling curve with a large enough effect; inconclusive = small, poorly fitted or top-dose-only effect; inactive = no such curve, though single readings can be large or run the other way; note: potency is the fitted concentration of half-maximal effect; the source files actives as falling curves though it sought activators and does not explain the sign; nearly all actives have a fitted effect of over 65% in size; many hits overshoot -100%
Target sequence (P80244 whole entry, looked up): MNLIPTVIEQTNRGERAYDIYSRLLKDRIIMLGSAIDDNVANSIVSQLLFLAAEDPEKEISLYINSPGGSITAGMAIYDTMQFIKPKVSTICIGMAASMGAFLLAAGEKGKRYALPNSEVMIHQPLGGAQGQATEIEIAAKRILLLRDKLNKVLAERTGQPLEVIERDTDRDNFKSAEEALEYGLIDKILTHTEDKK
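FRET quenching reversal measured ClpP activation: 10 microg/mL B. subtilis ClpP at pH 8 with the FRET-FV decapeptide, read at 430 nm after 320 nm excitation. The 20-min minus 0-min signal was scaled between DMSO/no-enzyme wells and ADEP (5.8 microM final).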
TRPV1 PAM = potentiators of human vanilloid receptor 1 (TRPV1); Q8NER1; potentiation, % at 8.33 µM; TRPV1-expressing cells, Fluo-8 calcium influx, capsaicin EC20 potentiation; host cell line not named in the record; control for the full effect not named in the record; actives 0.02% (n = 320,000); active means potentiation above 80%; inconclusive means 30% to 80%; inactive means below 30%; note: 0% is about no effect
Target sequence (Q8NER1 whole entry, looked up): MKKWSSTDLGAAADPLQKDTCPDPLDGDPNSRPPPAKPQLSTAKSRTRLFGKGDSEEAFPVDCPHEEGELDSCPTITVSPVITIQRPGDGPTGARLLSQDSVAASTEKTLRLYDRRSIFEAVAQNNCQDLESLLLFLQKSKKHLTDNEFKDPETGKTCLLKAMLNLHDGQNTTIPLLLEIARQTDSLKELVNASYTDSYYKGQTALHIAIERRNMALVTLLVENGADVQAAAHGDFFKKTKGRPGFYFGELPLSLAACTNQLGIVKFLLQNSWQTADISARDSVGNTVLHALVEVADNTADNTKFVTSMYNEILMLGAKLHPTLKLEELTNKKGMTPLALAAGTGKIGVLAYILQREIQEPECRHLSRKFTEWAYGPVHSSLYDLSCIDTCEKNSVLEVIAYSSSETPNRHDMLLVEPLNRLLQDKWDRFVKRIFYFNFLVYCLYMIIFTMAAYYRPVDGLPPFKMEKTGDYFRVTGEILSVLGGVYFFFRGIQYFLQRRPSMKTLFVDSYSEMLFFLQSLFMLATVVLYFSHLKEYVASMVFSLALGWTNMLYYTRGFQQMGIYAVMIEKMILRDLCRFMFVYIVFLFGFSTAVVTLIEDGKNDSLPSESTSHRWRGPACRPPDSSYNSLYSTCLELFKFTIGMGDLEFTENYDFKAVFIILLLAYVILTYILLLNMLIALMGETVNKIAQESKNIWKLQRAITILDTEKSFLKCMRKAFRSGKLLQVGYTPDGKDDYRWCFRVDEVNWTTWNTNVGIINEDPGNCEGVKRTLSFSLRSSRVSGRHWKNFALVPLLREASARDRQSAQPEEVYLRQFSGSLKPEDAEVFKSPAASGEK
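Fluo-8 calcium influx in TRPV1-expressing cells, kinetic read (ex 480/em 520 nm). Compound added and read 3 min for agonist activity, followed by capsaicin at EC20 final and 2 min further read for enhancement.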
Sfp PPTase inh = Sfp phosphopantetheinyl transferase inhibition; actives 3.5% (n = 310,000); Biochemical Sfp PPTase activity, qHTS; Potency, µM, without a hit: max response, negative = inhibition, hits mostly inhibitors; active = well fitted inhibition curve with a large enough effect; inconclusive = small, poorly fitted or top-dose-only effect, or another doubt; inactive = no such curve, though single readings can be large or run the other way;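 note: the enzyme is Sfp with the accession as filed and its product quenches rhodamine fluorescence; potency is the fitted concentration of half-maximal effect; 0% = enzyme reaction without inhibitor and -100% = no enzyme wells; top concentration of the series not given in the record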
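Reaction rates are the 30-min fluorescence difference (ex 525, em 598 nm) in wells containing 15 nM Sfp, 5 uM rhodamine-CoA and 12.5 uM BHQ-2-YbbR at pH 7.6 with 10 mM MgCl2.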
Active calls of the source: *; ? = inconclusive; . = not tested or not shown; [ ] = remark or other dose.

SMILES	D2 potentiator	Menin-MLL FL inh	gsp agonist	gsp antag	ClpP mod	TRPV1 PAM	Sfp PPTase inh
CC(=O)c1ccccc1NC(=O)c1cc(S(=O)(=O)N2CCOCC2)ccc1N1CCCC1	2	.	-4%	17%	1.2%	-8	.
COc1cccc(NC(=O)c2ccc(S(=O)(=O)N3CCCCC3)cc2)c1	-5	-2.3	?	-9%	-1.0%	-6	5%
Cc1cc(C(=O)OCCO)c(C#N)c(N)n1	0	0.3	-47%[inhibitor]	0%	4.1%	?	27%
COc1ccc(Nc2nc(N)nc(CSC(=S)N3CCN(c4ccccc4)CC3)n2)cc1	-7	-2.0	3%[15.4 µM]	-5%	-0.5%	2	5%
CC(Sc1nnc(C2CC2)n1C1CC1)C(=O)Nc1cccc(S(=O)(=O)N(C)C)c1 (stereo not given)	-1	.	-9%	5%	-4.2%	-6	.
COCCN1CCC(CNCc2cn(-c3cc(C)ccc3C)nc2-c2ccccc2)C1 (stereo not given)	-12	6.2	3%	7%	-3.1%	-13	50µM*
O=C(Nc1cccc(S(=O)(=O)NCc2ccco2)c1)c1cc(-c2ccc(F)cc2)nc2ccccc12	-9	2.1	-3%	-23%	-14%	25	19%
CC(C)c1ccc(CNc2ncc(Br)cn2)cc1	-5	-0.4	12%	15%	-1.1%	1	17%
CN(C)/C=C/C(=O)c1ccc(Br)cc1	-1	-1.9	0%	-3%	.	9	3%
O=c1[nH]c2ccc(NCc3ccc(F)cc3)cc2[nH]1	18	-2.9	-16%	-23%	3.6%	24	1%
CC(=N/O)/C(=N\O)c1ccc(C)o1	-5	-2.8	-28%	-2%	1.9%	-1	-4%
COc1ccc(Cl)cc1N(C(=O)c1ccco1)C(C(=O)NC1CCCC1)c1cccnc1 (stereo not given)	-10	-4.1	14%[15.4 µM]	-8%	.	-1	9%
CC(C(=O)NCC1CCCCC1)N1CCN(S(=O)(=O)c2cccs2)CC1 (stereo not given)	-1	.	?	2%	-2.3%	?	.
CCOc1ccccc1C(=O)OCC(=O)Nc1cccc(S(=O)(=O)N2CCCC2)c1	1	.	-21%	-29%	-13%	.	.
O=C(COc1ccc(Br)cc1)NCCN1CCCC1	-5	1.6	23%	10%	-6.6%	18	16%
CCN1C(=NCc2cc(OC)c(OC)c(OC)c2)N[C@@H](c2cccc(F)c2)C(C(=O)OC)=C1C	.	2.7	.	.	.	-9	2%
CCCC/S(C)=N/S(=O)(=O)c1ccc(C)cc1 (stereo not given)	-1	2.2	2%[15.4 µM]	14%	-1.7%	-6	36%
O=S(=O)(NC1CC1)c1ccc(S(=O)(=O)N2CCCc3ccccc32)cc1	7	4.3	17%	-26%	-1.3%	1	-2%
CS(=O)(=O)Nc1ccc(C(=O)NC2CC3CCC2C3)cc1 (stereo not given)	-12	-0.7	?	3%	-7.5%	1	15%
O=C(Nc1ccccc1F)N(Cc1ccc(F)cc1)Cc1nc2ccccc2c(=O)[nH]1	4	2.1	12%	8%	.	9	-12%

Three compounds out of the list above, ordered by their value in Sfp PPTase inh, high to low:
Structure	D2 potentiator	Menin-MLL FL inh	gsp agonist	Sfp PPTase inh
CCCC/S(C)=N/S(=O)(=O)c1ccc(C)cc1 (stereo not given)	-1	2.2	2%[15.4 µM]	36%
CN(C)/C=C/C(=O)c1ccc(Br)cc1	-1	-1.9	0%	3%
O=S(=O)(NC1CC1)c1ccc(S(=O)(=O)N2CCCc3ccccc32)cc1	7	4.3	17%	-2%

Following part:
SMILES	D2 potentiator	Menin-MLL FL inh	gsp agonist	gsp antag	ClpP mod	TRPV1 PAM	Sfp PPTase inh
CC(C)C(=O)Nc1ccc(-c2nc3ncccc3o2)cc1	0	-1.2	-3%	-9%	4.6%	5	1%
C=CCn1c(SCCN2CCOCC2)nc2c1c(=O)[nH]c(=O)n2C	0	2.4	0%	3%	-1.3%	-5	-6%
Cc1cccc(-n2ncc(C#N)c2N)c1	21	-2.4	13%	2%	-2.2%	-4	10%
CCCCn1c(N)c(N(C)C(=O)C2CCCC2)c(=O)[nH]c1=O	2	.	7%	5%	-2.0%	-4	.
CC(Sc1nnc2ccccn12)C(=O)Nc1ccc2c(c1)OCCO2 (stereo not given)	1	-3.2	-26%[15.4 µM]	12%	.	-2	10%
Cc1ccccc1CN(c1ccc(C(=O)Nc2cccnc2)cc1)S(C)(=O)=O	-8	-1.2	-30%	3%	-0.2%	-9	18%
Cc1c(CN(C)C)c2c(n1Cc1ccccc1)C(=O)c1ccccc1-2	-12	0.0	0%	-1%	2.6%	-6	-2%
O=C(CC1SC(=O)N(Cc2cccc3ccccc23)C1=O)Nc1nccs1 (stereo not given)	-10	6.0	6%	-33%	-1.1%	.	2%
Cc1oncc1C(=O)NC1CCCCC1	-7	-0.8	22%[15.4 µM]	16%	-3.0%	6	12%
CCCn1ncc(CN2CCC(CO)(Cc3ccc(OC)cc3)CC2)c1C	-6	-1.0	14%[15.4 µM]	4%	.	10	17%
CCN1CCN(C(c2cccs2)C(C)NS(=O)(=O)c2ccc(C)cc2)CC1 (stereo not given)	-14	-2.6	-16%	7%	1.0%	17	11%
COCCNC(=O)CN(C(=O)CCC(=O)Nc1ccccn1)c1ccc(C)cc1	-2	-0.6	-66%[inhibitor]	9%	-2.6%	3	18%
Fc1ccccc1COc1ccc(Br)cc1CNCC1CCCO1 (stereo not given)	-21	-1.1	-4%	-2%	-1.4%	-7	?
O=C(Nc1ccccc1)C1C2CCC3C(CCC21)C3(Cl)Cl (stereo not given)	-2	0.8	0%	-12%	1.6%	-6	11%
Cc1ccc(S(=O)(=O)Nc2ccc(Br)cc2C(NCC(=O)O)c2ccccc2)cc1 (stereo not given)	17	0.2	?	-15%	-2.4%	-2	-7%
CC(=O)N1CCN(CC(O)Cn2c3ccccc3c3ccccc32)CC1 (stereo not given)	1	0.5	-44%[inhibitor]	15%	.	-2	17%
C[C@]12CCC(=O)C=C1CC[C@@H]1[C@@H]2[C@@H](O)C[C@]2(C=O)[C@@H](C(=O)CO)CC[C@@H]12	-2	.	.	?	-1.8%	-33	.
COc1cccc(C(=O)Nc2cc(=O)n(C)c(=O)n2C)c1	-4	0.3	16%	1%	-0.5%	-7	13%
CCCCn1c(N)c(N(CCC(C)C)C(=O)C2CC(=O)N(Cc3ccc(C)cc3)C2)c(=O)[nH]c1=O (stereo not given)	-5	.	-48%	-8%	-3.3%	-14	.
O=[N+]([O-])c1cccc(-c2nn(-c3ccccc3)cc2CO)c1	-5	1.8	11%	-22%	0.9%	-7	5%
O=C(Cc1ccc(Cl)cc1)Nc1ccc(CN2CCCCC2)cc1	-14	0.0	-1%[15.4 µM]	10%	.	1	12%
Cc1nnc(N2C(=O)C(=O)/C(=C(\O)c3ccc4c(c3)CC(C)O4)C2c2ccccc2)s1 (stereo not given)	-4	.	4%[15.4 µM]	-7%	.	-6	4%
COc1ccc(N2CCN(C(=O)CNS(=O)(=O)c3ccc(Br)s3)CC2)cc1	-2	-0.1	-4%	-6%	0.5%	8	11%
O=C(Cn1cnc2cc([N+](=O)[O-])ccc2c1=O)Nc1ccccc1Cl	1	0.1	?	0%	-4.0%	6	-5%
Cn1c2ccc(F)cc2c2ncn(CCN3CCOCC3)c(=O)c21	-3	-1.1	26%	-9%	?	-10	13%
Cc1c(OC(C)C(=O)NCCCn2ccnc2)ccc2c3c(c(=O)oc12)CCC3 (stereo not given)	-10	.	?	-4%	3.9%	11	8%
Cc1noc(C)c1C(=O)OCC(=O)Nc1cccc(S(=O)(=O)N(C)C)c1	-7	0.7	1%	12%	-3.7%	-8	4%
CCOc1ccc(C(=O)Nc2ccc(N3CCN(C(C)=O)CC3)cc2)cc1[N+](=O)[O-]	-6	-2.2	-18%	-5%	-1.8%	8	4%
COc1ccc(OC)c(C(=O)CN2CCN(S(=O)(=O)c3ccc(Br)cc3)CC2)c1	-20	0.4	10%	-2%	-4.8%	-5	?

Of the compounds above, these have two or more sulfur atoms.
SMILES	D2 potentiator	Menin-MLL FL inh	gsp agonist	gsp antag	ClpP mod	TRPV1 PAM	Sfp PPTase inh
COc1ccc(Nc2nc(N)nc(CSC(=S)N3CCN(c4ccccc4)CC3)n2)cc1	-7	-2.0	3%[15.4 µM]	-5%	-0.5%	2	5%
CC(Sc1nnc(C2CC2)n1C1CC1)C(=O)Nc1cccc(S(=O)(=O)N(C)C)c1 (stereo not given)	-1	.	-9%	5%	-4.2%	-6	.
CC(C(=O)NCC1CCCCC1)N1CCN(S(=O)(=O)c2cccs2)CC1 (stereo not given)	-1	.	?	2%	-2.3%	?	.
CCCC/S(C)=N/S(=O)(=O)c1ccc(C)cc1 (stereo not given)	-1	2.2	2%[15.4 µM]	14%	-1.7%	-6	36%
O=S(=O)(NC1CC1)c1ccc(S(=O)(=O)N2CCCc3ccccc32)cc1	7	4.3	17%	-26%	-1.3%	1	-2%
O=C(CC1SC(=O)N(Cc2cccc3ccccc23)C1=O)Nc1nccs1 (stereo not given)	-10	6.0	6%	-33%	-1.1%	.	2%
CCN1CCN(C(c2cccs2)C(C)NS(=O)(=O)c2ccc(C)cc2)CC1 (stereo not given)	-14	-2.6	-16%	7%	1.0%	17	11%
COc1ccc(N2CCN(C(=O)CNS(=O)(=O)c3ccc(Br)s3)CC2)cc1	-2	-0.1	-4%	-6%	0.5%	8	11%
